RecA intein inh = Mtb RecA intein splicing inhibition; 0.75% of 290,000 active; AID 2221; P9WHJ3; inhibition, %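 (about 9 µM by stock and volumes)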; cell-free RecA intein splicing, fluorescence; in the data active means inhibition above about 30%;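 further: 0% = vehicle wells and 100% = reference inhibitor control wells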
Target sequence (P9WHJ3 whole entry, looked up): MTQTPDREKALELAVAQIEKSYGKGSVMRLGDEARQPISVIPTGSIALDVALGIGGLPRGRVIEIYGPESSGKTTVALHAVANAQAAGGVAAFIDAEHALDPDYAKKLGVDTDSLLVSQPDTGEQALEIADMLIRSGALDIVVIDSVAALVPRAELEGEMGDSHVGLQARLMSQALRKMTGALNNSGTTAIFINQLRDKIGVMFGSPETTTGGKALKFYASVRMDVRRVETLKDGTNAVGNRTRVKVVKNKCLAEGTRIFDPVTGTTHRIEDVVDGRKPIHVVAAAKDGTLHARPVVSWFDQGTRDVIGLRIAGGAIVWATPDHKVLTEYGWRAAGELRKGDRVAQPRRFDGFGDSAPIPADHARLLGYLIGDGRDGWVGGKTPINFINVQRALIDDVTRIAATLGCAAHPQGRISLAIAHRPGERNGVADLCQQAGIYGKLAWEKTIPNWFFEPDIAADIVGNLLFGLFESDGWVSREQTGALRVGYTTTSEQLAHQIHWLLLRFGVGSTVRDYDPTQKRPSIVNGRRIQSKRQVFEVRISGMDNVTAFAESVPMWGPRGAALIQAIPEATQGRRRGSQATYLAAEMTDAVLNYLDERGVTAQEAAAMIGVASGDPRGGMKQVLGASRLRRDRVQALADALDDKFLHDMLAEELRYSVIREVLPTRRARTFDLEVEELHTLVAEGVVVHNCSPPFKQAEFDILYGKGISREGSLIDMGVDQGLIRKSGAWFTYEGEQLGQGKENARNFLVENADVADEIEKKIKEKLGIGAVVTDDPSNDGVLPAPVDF
Arbovirus anti = antivirals against arbovirus infection | AID 1251 | inhibition, % at 10 µM | 0.37% of 200,000 active | arbovirus infection cell-based antiviral screen;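 active means inhibition from about 30%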;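 further: bluetongue infection of BSR cells; cell survival read as ATP light after 72 h; 0% = infected wells without compound and 100% = uninfected wells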
YopH inh = YopH (Yersinia) phosphatase inhibition; fluorescence Ex485/Em525; inhibition, %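 (about 10 µM by stock and volumes)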; 0.16% of 140,000 active;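 active means inhibition of 50% or more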;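 further: controls were vehicle for no effect and minimum signal wells for full effect; inactives centre near -20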
Mtb bLac sens = beta-lactam sensitization of Mtb H37Rv. M. tuberculosis H37Rv growth with meropenem, percent inhibition; hits of this screen are not shown here. inhibition, % at 25 µM. 0.27% of 330,000 active. AID 434955;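 active means about 74% or more and at least 40 points above the plate without the antibiotic, then above 30% in a dose series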;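 further: growth measured after seven days incubation then overnight dye step; 0% = bacteria only wells and 100% = bacteria with antibiotic; twin plates without the antibiotic show which effects depend on it; some results filed as inactive read as strong as hits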
Mtb growth = M. tuberculosis H37Rv growth inhibitors, H37Rv strain (AID 1626) | one-dose inhibition, % at 10 µM; IC50 in µM for titrated hits | 0.95% of 220,000 active | M. tuberculosis H37Rv growth inhibition; higher % means a stronger effect;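 active means confirmed in a dose series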;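 further: bacteria incubated seven days before Alamar blue readout; 0% = bacteria only wells and 100% = bacteria with antibiotic wells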
Arbovirus anti repeat = recorded beside Arbovirus anti, whose call it bears; inhibition, %; measured here: 10K subset replicate screen; many hits read low in the repeat;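 first of two repeat runs on a subset; 0% = infected and 100% = uninfected wells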
Numbers without * were called inactive. A portion of the library; rates above refer to the full screens.

Screening Cc1ccc(OCc2csc(N)n2)cc1 returned RecA intein inh 0.1, Arbovirus anti -2.7, Mtb bLac sens -2.5 and Mtb growth 2.7%.
Screening N#CCSc1nc2c(cc1C#N)CCCCCC2 returned Arbovirus anti 4.8, YopH inh -23.1, Mtb bLac sens 0.7 and Mtb growth 0.8%.
`CC1(C)SC(=S)N(/N=C/c2cccnc2)C1N(O)C(=O)Nc1ccccc1` (centres undefined) gave RecA intein inh -5.5, Mtb bLac sens -1.6 and Mtb growth -0.3%.
`CN(C)CCCN(C(=O)c1ccco1)c1nc(-c2ccc(Cl)cc2)cs1` gave RecA intein inh 1.3 and Mtb bLac sens 3.3.
For COCCn1c(SCC(=O)Nc2sc(C)c(C)c2C#N)nnc1C(C)C the results were RecA intein inh -0.6, Arbovirus anti 2.4, YopH inh -88.4, Mtb bLac sens -0.9 and Mtb growth 2.7%.
For CC1(C)C(=O)C2(CCCCC2)C(=O)OC1C(=O)c1ccccc1 (centres undefined) the results were RecA intein inh 1.5, Arbovirus anti 8.3, YopH inh -31.8, Mtb bLac sens -6.9 and Mtb growth 3.6%.
For Cc1ccc(NC(=O)c2ccccc2-c2ccccc2C(=O)O)cc1 the results were RecA intein inh 0.4, Arbovirus anti -2.9, YopH inh -38.8, Mtb bLac sens 11.9 and Mtb growth -13.7%.
O=C(CCCc1ccccc1)Nc1ccc2c(c1)OCCO2 was read as RecA intein inh -0.1, Arbovirus anti -4.8, Mtb bLac sens -1.4 and Mtb growth 11.1%.
For Cn1ncc([N+](=O)[O-])c1C(=O)Nc1ccc(-c2ccccc2)cc1 the results were RecA intein inh -3.6 and Mtb bLac sens 4.4.
COc1ccc(NC(=O)CN(C)C(=O)c2cc(-c3ccccc3)nc3ccccc23)cc1 was read as RecA intein inh -7.8 and Mtb bLac sens 2.1.
For O=C(OCc1nnc(-c2ccccc2)o1)c1ccc(S(=O)(=O)NCc2ccco2)cc1 the results were RecA intein inh 2.0, Arbovirus anti 0.6, YopH inh 0.6, Mtb bLac sens 3.8 and Mtb growth 15.5%.
Screening Cc1cc(C)c(C(=O)/C=C/c2ccc3c(c2)OCO3)c(=O)[nH]1 returned RecA intein inh 0.0, Arbovirus anti -6.4, Mtb bLac sens 0.2 and Mtb growth -2.7%.
Screening COc1ccc(N(C(=O)CNC(=O)c2cccs2)C(C(=O)NCC2CCCO2)c2ccccc2)cc1 (centres undefined) returned RecA intein inh -2.9, Arbovirus anti 5.7, Mtb bLac sens -6.0 and Mtb growth -0.9%.
`O=c1c2cccc3c2c(nn1CN1CCOCC1)-c1ccccc1-3` gave RecA intein inh 5.2, Arbovirus anti -18.2, YopH inh -18.1, Mtb bLac sens 8.4 and Mtb growth 1.8%.
`COC(=O)CCC(=O)N1CN2CN(C(=O)CCC(=O)OC)CC([N+](=O)[O-])(C2)C1` gave RecA intein inh 0.0, Mtb bLac sens -1.1 and Mtb growth -5.1%.
Screening CC(C)CCOc1ccc(C2(C)NC(=O)NC2=O)cc1 (centres undefined) returned RecA intein inh 0.3 and Mtb bLac sens -2.2.
Screening COc1ccccc1C(=O)Nc1ccc(S(=O)(=O)N2CCN(C)CC2)cc1 returned RecA intein inh -1.4 and Mtb bLac sens 0.7.
`Cc1ccc(S(=O)(=O)N2CCN(C(=O)c3ccco3)CC2)cc1` gave RecA intein inh 0.0 and Mtb bLac sens 7.2.
O=C(Nc1cc2c3c(c1)CC(=O)N3CCC2)C1CCCCC1 was read as RecA intein inh 12.4 and Mtb bLac sens 0.4.
For COc1ccc(CCNC(=O)CNCC2CCCCC2)cc1OC the results were RecA intein inh -5.0 and Mtb bLac sens -6.1.

Molecules listed so far that have a cyano group:
Screening N#CCSc1nc2c(cc1C#N)CCCCCC2 returned Arbovirus anti 4.8, YopH inh -23.1, Mtb bLac sens 0.7 and Mtb growth 0.8%.
For COCCn1c(SCC(=O)Nc2sc(C)c(C)c2C#N)nnc1C(C)C the results were RecA intein inh -0.6, Arbovirus anti 2.4, YopH inh -88.4, Mtb bLac sens -0.9 and Mtb growth 2.7%.

The list goes on.
`CCCS(=O)(=O)c1cscc1NC(=O)c1c(-c2c(F)cccc2Cl)noc1C` gave RecA intein inh -1.9, Mtb bLac sens -5.8 and Mtb growth -6.9%.
Screening O=C(NC1CCCC1)C(c1cccnc1)N(C(=O)c1csnn1)c1ccccc1 (centres undefined) returned RecA intein inh -1.4 and Mtb bLac sens -3.7.
Screening Cc1n(N)c2ccccc2[n+]1CC(=O)c1ccccc1 returned RecA intein inh -2.1, Arbovirus anti 1.1, Mtb bLac sens -0.4 and Mtb growth 2.3%.
`CCC[C@@H]1CCCO[C@@](C(=O)NCc2ccc(S(C)(=O)=O)cc2)(C(F)(F)F)C1` gave RecA intein inh 1.5, Mtb bLac sens -6.0 and Mtb growth -10.1%.
For CS(=O)(=O)c1ccc(C(=O)Nc2ccc(-c3nc4ccccc4[nH]3)cc2)cc1 the results were RecA intein inh -6.8 and Mtb bLac sens -1.4.
COc1ccccc1CCC(=O)N(C)CC(=O)Nc1ccc(Cl)c(C(F)(F)F)c1 was read as RecA intein inh 1.4 and Mtb bLac sens 0.9.
For CCCC1=NN2C(=N)/C(=C\c3ccc(OCCOc4ccc(NC(C)=O)cc4)c(OC)c3)C(=O)N=C2S1 the results were RecA intein inh 1.1 and Mtb bLac sens -2.5.
Screening COc1ccc(Br)cc1CN(C)CC(=O)Nc1cc([N+](=O)[O-])ccc1OC returned RecA intein inh -2.4, Arbovirus anti -7.5, YopH inh -24.8, Mtb bLac sens -5.5 and Mtb growth -5.7%.
Screening CC(=O)NC(c1ccc(F)cc1)c1cccnc1 (centres undefined) returned RecA intein inh 5.8, Arbovirus anti -0.1, YopH inh -37.2, Mtb bLac sens -18.2 and Mtb growth -10.1%.
`COc1ccc(C2CC(c3ccc(C)cc3)Nc3ncnn32)cc1` (centres undefined) gave RecA intein inh 0.5, Arbovirus anti 13.9, YopH inh -23.0, Mtb bLac sens 5.2, Mtb growth 6.2% and Arbovirus anti repeat 11.5.

Overlap with the part before: 2 entries, then new ones.
Screening CC(=O)NC(c1ccc(F)cc1)c1cccnc1 (centres undefined) returned RecA intein inh 5.8, Arbovirus anti -0.1, YopH inh -37.2, Mtb bLac sens -18.2 and Mtb growth -10.1%.
`COc1ccc(C2CC(c3ccc(C)cc3)Nc3ncnn32)cc1` (centres undefined) gave RecA intein inh 0.5, Arbovirus anti 13.9, YopH inh -23.0, Mtb bLac sens 5.2, Mtb growth 6.2% and Arbovirus anti repeat 11.5.
CCSc1nnc(-c2ccc(Cl)cc2)c2ccccc12 was read as RecA intein inh -0.4, Arbovirus anti -12.7, YopH inh -33.8, Mtb bLac sens 5.0 and Mtb growth -17.1%.
Screening CCCCOCC(O)Cn1c(C)nc2ccccc21 (centres undefined) returned RecA intein inh -1.8, Arbovirus anti 1.7, YopH inh -33.0, Mtb bLac sens 1.5 and Mtb growth 6.6%.
For COCCn1c(C(C)C)nc2sc3ccccc3c(=O)c2c1=O the results were RecA intein inh 0.3, Arbovirus anti 4.5, YopH inh -45.4, Mtb bLac sens -16.3 and Mtb growth -1.4%.
`COc1ccc(CCNc2nc(C)cc(C)c2C#N)cc1OC` gave RecA intein inh 1.0 and Mtb bLac sens -3.0.
For CCOc1ccc(-n2c(C)nc3cc(C(=O)NCc4ccco4)ccc32)cc1 the results were RecA intein inh 8.2, Arbovirus anti 4.2, YopH inh -21.1, Mtb bLac sens -1.3 and Mtb growth 6.7%.
Screening Cc1cc(C)c(C2=NOC(O)(C(F)(F)F)C2)c(=O)[nH]1 (centres undefined) returned RecA intein inh -1.6, Arbovirus anti 1.1, YopH inh -43.7, Mtb bLac sens 11.9 and Mtb growth 0.4%.
Screening C=CCC(O)(CC=C)CNC(=O)C1CCC(=O)N(CCCc2ccccc2)C1 (centres undefined) returned RecA intein inh 0.8 and Mtb bLac sens -1.7.
CC(=O)c1cccc(NC(=O)COC(=O)c2ccccc2C)c1 was read as RecA intein inh -0.4 and Mtb bLac sens 3.2.
CC(OC(=O)c1nsc(Cl)c1Cl)C(=O)NCCc1ccccc1 (centres undefined) was read as RecA intein inh 1.5 and Mtb bLac sens 5.6.
`CC1=NN(c2ccccc2)C(=O)/C1=C/C=C/C=C/N(C)C` gave Arbovirus anti -4.1, Mtb bLac sens 12.7 and Mtb growth 14.9%.
O=c1cc(-c2ccc(C3CCCCC3)cc2)[nH][nH]1 was read as RecA intein inh 76.2*, Arbovirus anti -3.0, Mtb bLac sens 3.3 and Mtb growth 1.5%.
For CN(C)c1ccc(N=Nc2ccccc2C(=O)OCC(=O)N2CCCC2)cc1 the results were RecA intein inh -3.4, Arbovirus anti 17.7, YopH inh -8.6, Mtb bLac sens 97.0 and Mtb growth 21.3%.
O=C1CCc2cc(S(=O)(=O)N3CCN(c4ccccc4)CC3)cc3c2N1CCC3 was read as RecA intein inh 0.3 and Mtb bLac sens -0.6.
For COc1ccc(OC)c(Nc2cc(C)nc3ccc(C)cc23)c1 the results were RecA intein inh 0.9 and Mtb bLac sens 76.8.
For COc1c(C)cc(C(=O)C2CCCN(C(=O)c3cc4nc(C)cc(C)n4n3)C2)cc1C (centres undefined) the results were RecA intein inh 0.6, Arbovirus anti 3.2, Mtb bLac sens 0.0 and Mtb growth 0.3%.
`Cc1ccc([N+](=O)[O-])cc1NC(=O)CN(C(=O)c1ccccc1Cl)C1CCCCC1` gave RecA intein inh 0.0, Arbovirus anti -2.3, YopH inh 3.3, Mtb bLac sens 99.8 and Mtb growth 3.22µM*.
Cc1ccccc1Cn1c(=O)n(CCCC(=O)NCc2ccco2)c(=O)c2sccc21 was read as RecA intein inh -1.4, Arbovirus anti -3.5, YopH inh -10.0, Mtb bLac sens -2.3 and Mtb growth -5.1%.
Screening COc1ccc(C(CC(=O)N2CCC3(CC2)OCCO3)NS(=O)(=O)c2ccc(OC)cc2)cc1 (centres undefined) returned RecA intein inh -0.8, Arbovirus anti 9.5, YopH inh -42.4, Mtb bLac sens 1.2 and Mtb growth -5.1%.
For COc1ccccc1-n1cnc2cc(NCc3ccccn3)ccc21 the results were RecA intein inh 2.3, Arbovirus anti -2.7, YopH inh -14.1, Mtb bLac sens 63.2 and Mtb growth 2.1%.
For COc1ccc(CN2CCN(C(=O)c3ccccc3F)CC2)c(OC)c1OC the results were RecA intein inh 2.5 and Mtb bLac sens -8.6.
`O=C(O)c1ccc(CS(=O)c2cccc(C(F)(F)F)c2)o1` (centres undefined) gave RecA intein inh 0.2, Arbovirus anti -1.9, YopH inh -47.5, Mtb bLac sens -14.7 and Mtb growth -1.7%.
Screening Cc1ccc(S(=O)(=O)/N=C(\c2ccccc2)N(C)S(=O)(=O)c2ccccc2)cc1 returned RecA intein inh 0.1, Arbovirus anti 4.4, YopH inh -7.4, Mtb bLac sens -4.7 and Mtb growth 10.8%.
For O=C(CCC(=O)c1ccc(Br)cc1)Nc1cccnc1 the results were RecA intein inh 2.7, Arbovirus anti -4.0, Mtb bLac sens 9.0 and Mtb growth -7.8%.
For CCCN(CCC)CCNC(=S)Nc1ccc2nc3n(c(=O)c2c1)CCCCC3 the results were RecA intein inh -0.8, Arbovirus anti -17.4, Mtb bLac sens 5.5 and Mtb growth -10.2%.
O=C(O)c1ccc(/C=N/NC(=O)c2ccc(NS(=O)(=O)c3cccs3)cc2)cc1 was read as RecA intein inh -3.5, Mtb bLac sens 2.8 and Mtb growth 7.3%.
COc1ccc(NC(=O)C2CCCN(S(=O)(=O)c3ccc(C)cc3)C2)cc1OC (centres undefined) was read as RecA intein inh -3.0, Arbovirus anti -1.7, YopH inh -30.2, Mtb bLac sens -1.3 and Mtb growth 3.8%.
For COc1ccccc1/C=C1\NC(=S)N(CC2CCCO2)C1=O (centres undefined) the results were RecA intein inh 2.5, Arbovirus anti -1.6, YopH inh -2.4, Mtb bLac sens 3.1 and Mtb growth 1.8%.
For CC(C)C(=O)NCCc1nc2ccccc2n1CCOc1ccccc1 the results were RecA intein inh 0.7, Arbovirus anti 3.6, YopH inh -11.9 and Mtb bLac sens 3.5.
Screening CC(C)C(NC(=O)OCc1ccccc1)C(=O)O (centres undefined) returned RecA intein inh -0.1, Arbovirus anti 7.4, YopH inh -19.0, Mtb bLac sens 0.5 and Mtb growth 2.2%.
`O=c1c2cc(-c3ccccc3)sc2nc2n1N=C(c1cccs1)CS2` gave RecA intein inh -3.0, Mtb bLac sens -1.1 and Mtb growth 7.5%.
Screening COc1ccc(-c2cc(C(=O)NCCN3CCOCC3)c3ccccc3n2)cc1OC returned RecA intein inh -1.0 and Mtb bLac sens -7.3.
COc1ccc(OCCCC(=O)OC(C)C(=O)Nc2ccc(C)cc2)cc1 (centres undefined) was read as RecA intein inh 0.5 and Mtb bLac sens 15.3.
`N#Cc1ccccc1CSc1nc2ccsc2c(=O)n1Cc1ccccn1` gave RecA intein inh 0.0, Arbovirus anti 6.4, YopH inh -10.7, Mtb bLac sens 12.1 and Mtb growth -1.1%.
O=C(CSc1nc2scc(-c3ccccc3)c2c(=O)[nH]1)NCCc1ccccc1 was read as RecA intein inh 1.9 and Mtb bLac sens -11.0.
For O=c1cc(COc2ccc(Cl)c(Cl)c2)nc2sccn12 the results were Mtb bLac sens -4.6 and Mtb growth -5.7%.
